Screening results deposited in PubChem BioAssay by NMMLSC.
Autofluor counter – compound fluorescence in toxin protease inhibitor counterscreen; fluorescence intensity (test concentration not listed); compound autofluorescence counterscreen, microsphere flow cytometry; active compounds read high; 360,000 tested, 3.1% active; AID 624483;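 active means at least 3 SD above the mean of all compounds, about 16000 in these data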;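 further: 100 nL of 1 mM stock went into each well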
Numbers without * were called inactive. Some of the compounds tested; count on the stated rates, not on these rows.

SMILES | Autofluor counter
OC(c1ccc(Cl)c(Cl)c1)c1ncc(-c2ccc(C(F)(F)F)cc2)[nH]1 (configuration not stated) | 3948
CC(C)Nc1nc(Nc2ccccc2Cl)c2sccc2n1 | 3745
S=C(NCCc1ccccc1)N1CCC2CC1c1cc(-c3ccc4c(c3)OCO4)ccc12 (configuration not stated) | 6097
COCCNC(=O)C1(C)CCCN(C(=O)c2cccc(C#N)c2)C1 (configuration not stated) | 4008
COc1ccc(C=CC(=O)c2ccc(OC)c(OC)c2)cc1O | 2896
O=c1[nH]c2ccccc2n1C1CCN(C(CCc2ccccc2)c2nnnn2C2CCCC2)CC1 (configuration not stated) | 5970
Cc1ccc(N2CC(C(=O)Nc3cc(S(=O)(=O)N4CCCCC4)ccc3C)CC2=O)cc1 (configuration not stated) | 3669
CC1(C)N=C(N)N=C(N)N1c1ccc(OCC(=O)Nc2ccccc2)c(Cl)c1 | 2863
COc1ccc(NC(=O)COC(=O)C2COc3ccccc3O2)cc1 (configuration not stated) | 3931
C[C@H](CO)N1C[C@H](C)[C@H](CN(C)C(=O)NC2CCCCC2)Oc2cc(-c3cccnc3)ccc2S1(=O)=O | 3898

Structures listed so far containing an aryl methoxy group, in the order listed:
SMILES | Autofluor counter
COc1ccc(C=CC(=O)c2ccc(OC)c(OC)c2)cc1O | 2896
COc1ccc(NC(=O)COC(=O)C2COc3ccccc3O2)cc1 (configuration not stated) | 3931

Next section.
SMILES | Autofluor counter
CCC(C)[C@H]1CNC(=O)C(=O)N1CCc1cccc(F)c1 (some centres not stated) | 5952
CC(=O)Nc1cccc2cc(S(=O)(=O)O)ccc12 | 5882
COc1ccc(OC2(C)CCN(Cc3ccccc3OC(F)F)C2)cc1 (configuration not stated) | 3930
CCc1cccc(CC)c1NC(=O)C(CC)Sc1nc2ccsc2c(=O)n1CCC(=O)O (configuration not stated) | 3568
CC1CCN(C(=O)c2ncn3c2c(=O)[nH]c2cccnc23)CC1 | 3773
CCCCNC(=O)c1nc(C2CCN(S(=O)(=O)c3c(F)cccc3F)CC2)oc1-c1cccc(C(F)(F)F)c1 | 6086
COc1cc(CNc2ncnc3c2ncn3[C@H]2CN(Cc3ccc(-c4ccccc4)cc3)C[C@@H](CO)O2)cc(OC)c1OC | 2670
COCC(=O)N1CCCC(C)(C(=O)Nc2cccc(Oc3ccccc3)c2)C1 (configuration not stated) | 3472
OC(c1ccccc1)c1nc(-c2csc3ccccc23)cs1 (configuration not stated) | 3982
Nc1ncnc2c1ncn2[C@@H]1O[C@H](C(=O)N2CCC[C@@H]2C(=O)OCc2ccccc2)[C@@H](O)[C@H]1O | 4467

An excerpt from further up, as a working copy:
SMILES | Autofluor counter
CCC(C)[C@H]1CNC(=O)C(=O)N1CCc1cccc(F)c1 (some centres not stated) | 5952
CC(=O)Nc1cccc2cc(S(=O)(=O)O)ccc12 | 5882
COc1ccc(OC2(C)CCN(Cc3ccccc3OC(F)F)C2)cc1 (configuration not stated) | 3930
CCc1cccc(CC)c1NC(=O)C(CC)Sc1nc2ccsc2c(=O)n1CCC(=O)O (configuration not stated) | 3568

(next part)
SMILES | Autofluor counter
Cc1ccccc1C#CC1=CC(=O)CC(C)(C)C1 | 3737
CCN(CC)C(=O)C1=C(C)N(CCC2=CCCCC2)C(=O)C(CC(=O)NCCc2ccccn2)C1 (configuration not stated) | 3679
Cc1cccc(C)c1NC(=O)C(c1ccccc1OC(F)(F)F)N1CCN(C/C=C/c2ccccc2)CC1 (configuration not stated) | 5546
COCCN(CCOC)Cc1cc(=O)oc2ccc3ccccc3c12 | 6011
Cn1ccc2c(-c3ccc(CO)cc3)cc3c(c21)C1CCC3O1 (configuration not stated) | 4284
COc1ccccc1CNC(=O)Nc1nc(C(N)C(C)C)cs1 (configuration not stated) | 2980
Cc1ccc(S(=O)(=O)N2CCC(C(=O)OCC(=O)N(Cc3ccccc3)C(C)C)CC2)cc1C | 3971
CCOc1ccc(CCNC(=O)COC(=O)c2n[nH]c3ccccc23)cc1OCC | 3317
CCn1c(CC(=O)Nc2ccccc2F)nnc1SCC(=O)NC1=NCCS1 | 4268
Cc1cccc(-c2cc(N3CCCN(C)CC3)n3nccc3n2)c1 | 1818
Cc1cc(=O)c2c(N(C)C)cccc2[nH]1 | 4238
Cc1cccc(CN2[C@H](COCc3ccccc3)C=CS2(=O)=O)c1 | 5824
CCCCCCn1c(=O)n2n(c1=O)C[C@]1(OC(=O)NCc3ccco3)CN(S(=O)(=O)c3ccc(C)cc3)C[C@]1(O)C2 | 3618
O=c1[nH][nH]c2c1C(c1cccc(C(F)(F)F)c1)OC(CCc1ccccc1)C2 (configuration not stated) | 6382
CCc1nnc(NC(=O)C(NS(=O)(=O)c2ccccc2)C(C)C)s1 (configuration not stated) | 3568
CCCCCCN1CCN(C2CN(Cc3cn(Cc4cccc(Cl)c4)nn3)S(=O)(=O)C2)CC1 (configuration not stated) | 4243
CCC[C@H]1CN(c2ccc(OC)cc2)C(=O)[C@@H]1CC(=O)NC | 3771
Nc1cc(Cl)ccc1CN1C(=O)c2ccccc2C1=O | 6027
CCOC(=O)CNC(=O)N1Cc2cc(-c3cccc(F)c3)ccc2-n2nncc2C1 | 5679
Cc1ccc(-c2nc3c(Cl)cc(C(F)(F)F)cn3c2Cc2ccsc2)cc1 | 6644
O=C(NCc1cccc(Cl)c1)C1Cc2c(-c3ccc(Cl)cc3)ccnc2O1 (configuration not stated) | 3453
Cc1ccc(Cl)cc1-c1cc(C(=O)N2CCc3ccccc3C2)[nH]n1 | 3877
CC(=O)Nc1ccc(-c2ccnc3c2CC(C)(C(=O)NCCN(C)C)O3)cc1 (configuration not stated) | 3888
COc1ccc(-c2nc(S(=O)(=O)c3ccccc3)c(N3CCN(C)CC3)o2)cc1 | 3863
Cc1ccc(-c2cnc(C(O)c3ccc(Cl)c(F)c3)[nH]2)cc1 (configuration not stated) | 3785
Cc1ccc2nc(-c3cccc(Br)c3)c(CC3CCCCC3)n2c1 | 5990
CC(=O)Nc1cccc(-c2ccnc3c2CC(C)(C(=O)Nc2ccc4c(c2)OCO4)O3)c1 (configuration not stated) | 2906
Fc1ccc(-c2nc3ccc(Cl)cn3c2Cc2ccccc2C(F)(F)F)cc1 | 4673
Cc1cnc2nc(-c3ccccc3)ccc2c1 | 5995
O=C1Nc2ccccc2N=C(c2ccccc2)C1N(Cc1ccc(F)cc1)C(=O)c1cccnc1 (configuration not stated) | 5534
COc1ccc(NC(=O)C2c3ccccc3OCC(=O)N2CC(F)(F)F)cc1 (configuration not stated) | 4388
O=C(CCCN1C(=O)C(=Cc2ccc3c(c2)OCO3)SC1=S)Nc1ccc(C(=O)O)c(O)c1 | 3820
COCOCCn1cc(CN2CCS(=O)(=O)N(Cc3ccc(-c4ccc(Cl)nc4)cc3)C(CC(C)C)C2=O)nn1 (configuration not stated) | 3690
COC(=O)c1cc(C)nc(Nc2nc(C(N)Cc3ccc(F)cc3)cs2)n1 (configuration not stated) | 3941
CCCNC(=O)c1cc2c(c(-c3cccc(-c4ccc(C#N)cc4)c3)n1)[C@@H](CCO)N(C(=O)CC)C2 | 4492
CN(c1ccc(-c2csc(NC(=O)CCCc3nc4ccccc4c(=O)[nH]3)n2)cc1)S(C)(=O)=O | 3840
CC1=C(C(=O)N(C(C)C)C(C)C)CC(CC(=O)NC(c2ccccc2)c2ccccc2)C(=O)N1Cc1ccc(C(C)(C)C)cc1 (configuration not stated) | 6012
CCOC(=O)CNC(=O)N(C)[C@H]1C[C@H]2c3[nH]c4ccccc4c3CCN2C(=O)[C@H]1[C@H](C)O | 6058
COc1cc(OC)c(N(C)S(=O)(=O)c2cccc(C(=O)NCc3cccs3)c2)cc1Cl | 4055
O=C(NC1CCCCC1)c1ccc2ccccc2c1O | 3660
CC1(C(=O)NS(=O)(=O)c2ccccc2C(F)(F)F)CCN1C(=O)CC1CCCCC1 (configuration not stated) | 3486
C[C@@H]1COc2cccc(N3CCC[C@H]3CO)c2S(=O)(=O)N1 | 5826
O=C1NC(C2CC3C=CC2C3)Nc2ccccc21 (configuration not stated) | 3708
Cc1[nH]ncc1Nc1c(C(C)C)cccc1C(C)C | 6516
Cc1ccccc1S(=O)(=O)NC(=O)C1(C)CCN1C(=O)CC1CCCC1 (configuration not stated) | 2929
C=C(C)C(=O)Nc1ccc2nn(-c3ccccc3O)nc2c1 | 4042
O=C(c1ccoc1)N1CCN(c2cc(-c3ccccc3)nc3cc(-c4ccccc4)nn23)CC1 | 3169
CN1CCCC2c3ccccc3CCC21 (configuration not stated) | 5014
Cc1cccc(CN2[C@H](COC(=O)Nc3ccccc3)C=CS2(=O)=O)c1 | 5539
O=C(COC(=O)Cc1ccc(Cl)cc1Cl)NCc1ccco1 | 2860

Some of the entries so far, in CSV form.
Structure,Autofluor counter
Cc1cccc(CN2[C@H](COC(=O)Nc3ccccc3)C=CS2(=O)=O)c1,5539
O=C(COC(=O)Cc1ccc(Cl)cc1Cl)NCc1ccco1,2860

(further entries)
SMILES | Autofluor counter
O=C(NCCNc1ccc([N+](=O)[O-])cc1)c1ccccc1Cl | 2804
CCCCCCN1C[C@@H](O)[C@H](n2cc(COC(=O)c3ccccc3)nn2)C[C@@H]1c1ccc(OC)cc1 | 4012
Cc1cc(C(O)c2ncc(-c3ccc(Oc4ccccc4)cc3)[nH]2)ccc1F (configuration not stated) | 3004
CC(=O)Nc1cc(-c2ccoc2)cn2c(-c3ccccc3)cnc12 | 3975
O=S(=O)(c1ccccc1)N1CCN(CCOc2ccc(F)cc2)CC1 | 3958
CCCCN(C)c1c(C)nc2ccc(C(=O)NCCCn3ccnc3)cn12 | 3815
CC1CCCCC12NC(=O)N(CC(=O)N1CCN(S(=O)(=O)c3ccc(Cl)s3)CC1)C2=O (configuration not stated) | 2772
O=C(OCc1cn([C@@H]2C[C@H](c3ccc(Cl)cc3)N(C(=O)c3cccs3)C[C@H]2O)nn1)c1ccccc1 | 3884
COc1ccc(CCCNC(=O)C2(C)Cc3c(-c4ccc(NC(C)=O)cc4)ccnc3O2)cc1 (configuration not stated) | 3726
CCc1nc2c(OCC3CCCCC3)cccn2c1N(C)C(=O)c1ccc(C)cc1 | 3717
Cc1cc(C(=O)NNC(C)Cc2ccccc2)no1 (configuration not stated) | 3974
CC(=O)c1ccc(-c2cnc3c(NC=O)cc(-c4ccc(N5CCN(C)CC5)cc4)cn23)cc1 | 2818
CCc1ccc(C(O)c2ncc(-c3cccc(OC)c3)[nH]2)cc1 (configuration not stated) | 3440
COc1ccc(C#Cc2cccc(-c3nc(C(=O)NCc4ccc(Oc5ccccc5)cc4)cc4c3[C@@H](CCO)N(S(=O)C(C)(C)C)C4)c2)cc1OC (some centres not stated) | 6285
CC[C@H](NC(=O)CC[C@H]1O[C@@H](n2cnc3c(NC(=O)c4ccccc4)ncnc32)[C@H](O)[C@@H]1O)c1ccccc1 | 5598
COc1ccc(NC(=O)N(C)[C@H]2C[C@H]3c4[nH]c5ccc(-c6ccc(OC)cc6)cc5c4CCN3C[C@H]2[C@H](C)O)cc1 | 3233
CCN(CC)C(=O)c1cccc(-c2csc(C(C)(O)c3ccc(OC)cc3)n2)c1 (configuration not stated) | 3480
CCCCN(C(C)=O)c1c(CC)nc2ccc(C(=O)Nc3cccc(OCC(=O)N(C)C)c3)cn12 | 2918
O=C(Cc1ccc(Cl)cc1)NCC(=O)N1CCC2(CC1)NCCc1[nH]cnc12 | 2861
Cc1ccc(S(=O)(=O)N2C[C@H]3C(=O)C[C@@H](c4ccccc4)N(S(=O)(=O)c4ccc(C)cc4)[C@H]3C[C@H]2c2cccc(C)c2)cc1 | 6089
COc1ccc(C(=O)N2CCOC2CNC(=O)C(=O)NCc2ccccn2)cc1 (configuration not stated) | 3455
Cc1cc2nc(-c3ccc(F)cc3)c(Cc3ccsc3)n2c(C)c1Br | 4759
COC(=O)C[C@H]1C[C@@H]2c3cc(NC(=O)Nc4ccc(F)cc4)ccc3O[C@@H]2[C@@H](CO)O1 | 3971
Cc1ccc(S(=O)(=O)N2C[C@@H](C)[C@]3(C2)[C@H](O)[C@H](OC(=O)Nc2cccs2)C[C@H]2C(=O)N(c4ccccc4)C(=O)[C@H]23)cc1 | 3171
Cc1ccc(S(=O)(=O)Nc2ccc3c(c2)C(=O)N([C@@H](C)CO)C[C@@H](C)[C@@H](CN(C)C(=O)NC2CCCCC2)OCCCC[C@H](C)O3)cc1 | 4856
CC1(C)N=C(N)N=C(N)N1c1cc(Cl)ccc1Cl | 2874
O=C(NCCN1CCC(n2c(=O)[nH]c3ccccc32)CC1)c1ccccc1C(F)(F)F | 5908
CC(NCC(=O)Nc1ccccc1C(=O)NC1CC1)c1ccc(Cl)cc1 (configuration not stated) | 3482
O=C1c2ccccc2C(=O)N1C1C=CC=CC=C1 | 3832
O=C(O)c1c2c(nc3ccc(S(=O)(=O)N4CCC(C(=O)NCc5ccccc5)CC4)cc13)CCCC2 | 3581

Three entries already listed, sorted by heavy-atom count, rising.
SMILES | Autofluor counter
O=C1c2ccccc2C(=O)N1C1C=CC=CC=C1 | 3832
Cc1cc2nc(-c3ccc(F)cc3)c(Cc3ccsc3)n2c(C)c1Br | 4759
CC(NCC(=O)Nc1ccccc1C(=O)NC1CC1)c1ccc(Cl)cc1 (configuration not stated) | 3482

Following part.
SMILES | Autofluor counter
COC(=O)c1ccc2nc(-c3cccc(Cl)c3)c(Cc3ccccc3OC)n2c1 | 7683
CC1(C(=O)Nc2ccc3nc[nH]c3c2)CCN1C(=O)C1(c2ccccc2)CC1 (configuration not stated) | 3642
COC(=O)CCCC[C@@H]1O[C@H](CCc2ccccc2)Cc2[nH][nH]c(=O)c21 | 5782
Cc1cccc(C)c1NC(=O)C1c2ccccc2OCC(=O)N1C1CC1 (configuration not stated) | 5779
O=NN(Cc1cccnc1)C(=O)NC1CCCCC1 | 6559
COc1ccc(NC(=O)C2Cc3c(-c4cccc(C(N)=O)c4)ccnc3O2)cn1 (configuration not stated) | 4398
COCCNc1nc(NCCN2CCNC2=O)c2sc(-c3ccccc3)cc2n1 | 3964
C[C@@H]1COc2cccc(N3CCSCC3)c2S(=O)(=O)N1 | 4031
O=S1(=O)C=C[C@H](COCc2ccccc2)N1 | 5969
CC(O)(c1ccc(F)c(F)c1)c1nc(-c2ccc(Cl)cc2)cs1 (configuration not stated) | 3100
